UCH37 DUB inh = blocks the human deubiquitinase UCH37. Q9Y5K5. purified proteasome/UCH37, Ub-AMC cleavage fluorescence. inhibition, % (concentration not given with the values). 0.33% of 330,000 active. AID 588478;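 active means mean of two replicates above 20%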;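 further: 0% = compound-free wells with enzyme and 100% = wells lacking proteasome; stock transfer was 100 nL into about 20 µL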
Target sequence (Q9Y5K5 whole entry, looked up): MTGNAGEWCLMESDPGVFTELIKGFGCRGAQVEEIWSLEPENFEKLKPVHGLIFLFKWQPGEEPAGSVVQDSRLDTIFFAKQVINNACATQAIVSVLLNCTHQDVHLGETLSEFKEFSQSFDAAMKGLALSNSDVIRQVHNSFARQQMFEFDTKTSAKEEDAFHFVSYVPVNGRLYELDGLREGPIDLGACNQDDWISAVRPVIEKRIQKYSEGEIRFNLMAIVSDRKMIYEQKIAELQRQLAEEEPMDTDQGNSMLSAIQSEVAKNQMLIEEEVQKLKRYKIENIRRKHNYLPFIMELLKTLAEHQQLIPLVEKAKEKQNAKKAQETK
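Material: human UCH37 enzyme supplied as purified proteasome complex / Amount: 0.15 nM proteasome as dispensed / Buffer or medium: pH 7.4 Tris-HCl (50 mM) with ovalbumin, ATP-MgCl2, DTT / Times: preincubation 30 min, reaction 25 min, room temperature / Technique: AMC fluorescence from Ub-AMC cleavage, excitation 355 nm, emission 460 nm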
HNF4A DNA FP = change in binding of human HNF4 alpha to DNA. AID 1224865. activity change, % at 10 µM. 0.3% of 360,000 active. P41235. HNF4a-FITC DNA binding, fluorescence polarization, 1 h; in the data active means activity change above about 30%, passing the limit was not always enough;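 further: controls were the assay level and a saturating level of protein; the project sought stronger binding though the title names inhibitors; some compounds called inactive have numbers as strong as hits; positive values seem to mean higher polarization but the record does not say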
Target sequence (P41235 whole entry, looked up): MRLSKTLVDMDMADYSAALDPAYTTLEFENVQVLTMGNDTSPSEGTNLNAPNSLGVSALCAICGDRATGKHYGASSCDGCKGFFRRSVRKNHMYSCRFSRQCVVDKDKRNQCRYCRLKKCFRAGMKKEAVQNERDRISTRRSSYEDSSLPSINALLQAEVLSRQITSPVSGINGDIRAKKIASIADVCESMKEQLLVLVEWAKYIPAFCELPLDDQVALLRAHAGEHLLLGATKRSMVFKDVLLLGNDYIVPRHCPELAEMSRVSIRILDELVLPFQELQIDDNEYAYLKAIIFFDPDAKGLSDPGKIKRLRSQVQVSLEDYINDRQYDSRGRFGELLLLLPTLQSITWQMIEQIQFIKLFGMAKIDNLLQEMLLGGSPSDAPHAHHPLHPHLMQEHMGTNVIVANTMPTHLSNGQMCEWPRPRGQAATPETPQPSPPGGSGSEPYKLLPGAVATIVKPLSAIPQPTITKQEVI
FGF22 binding = FGF22 (human) thermal shift binding. 1.5% of 340,000 active. recombinant FGF22 thermal shift, SYPRO orange fluorescence; percent of sucrose octasulfate shift, DMSO zero. calls only at 9.99 µM. Q9HCT0;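 active means melting point raised past a set limit in the mean and every replicate; inconclusive means no clear call; three in four hits are not shown here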
Target sequence (Q9HCT0 whole entry, looked up): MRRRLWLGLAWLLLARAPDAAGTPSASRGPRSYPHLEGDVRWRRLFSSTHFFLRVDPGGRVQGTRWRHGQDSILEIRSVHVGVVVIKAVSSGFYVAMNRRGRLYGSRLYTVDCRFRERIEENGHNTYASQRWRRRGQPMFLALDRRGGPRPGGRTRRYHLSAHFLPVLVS
RanGTP-Impb inh = disruptors of Ran-importin-beta complex formation – biochemical, FRET, CFP-Ran, YFP-importin-beta, homogeneous, primary screen; cell-free CFP-Ran/YFP-importin-beta FRET ratio; inhibition, % (concentration not given with the values); 1.1% of 300,000 active; AID 2216;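 active means most replicates above 15%; inconclusive means exactly half above 15%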;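 further: 0% = DMSO wells and 100% = Ran loaded with GDP instead of GTP; wells of about 40 µL received 100 nL stock; the first replicate is given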
MLL AF4-AF9 inh = blocks AF4 peptide binding to human AF9. AID 651704. 0.47% of 350,000 active. P42568. inhibition, % at 10 µM. AlphaScreen, biotin-AF4 peptide binding to FLAG-AF9;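 active means every replicate reaching a set inhibition limit, whatever the replicate mean, cut at about 25% in these data; inconclusive means mean inhibition reaches that limit but some replicates miss it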;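 further: 0% = plate neutral control median and 100% = total signal loss; the record names both 10 and 1 µM as test concentration; the first replicate is given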
Vif A3G = HIV-1 Vif–A3G interaction blockers – biochemical, TR-FRET, GST-Vif 1-94, biotin-A3G peptide, dose response retest, primary screen (AID 1117319) | 0.57% of 260,000 active | TR-FRET GST-Vif / biotin-A3G peptide binding; higher % means a stronger effect; test concentration not given here; strong numbers were not always called active | inhibition, %, or IC50 in µM where a hit was titrated;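 active means above the screen mean plus three standard deviations and confirmed in dose response; inconclusive means results disagree or hit not tested in dose response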;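 further: Vif residues 1-94 fused to GST binding biotinylated APOBEC3G peptide 110-148; 0% = full assay without inhibitor and 100% = GST in place of GST-Vif; retest series ran down from 100 µM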
Ecoli growth = E. coli growth inhibition; Escherichia coli growth, OD600, 23 h; hits give low values; OD600 absorbance (test concentration not listed); 0.21% of 330,000 active; AID 1053175;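 active means OD600 absorbance below the run mean of sample wells minus 3.6 SD, in any replicate, cut at about 0.56 in these data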;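 further: stock transfer was 300 nL into about 60 µL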
Starred values were filed as active, the others as inactive. Some of the compounds tested (hit frequency here may not be typical).

How did COc1nn(CC(=O)N2N=C(C)CC2(O)C(F)(F)F)cc1[N+](=O)[O-] (stereo unspecified) do in these assays?
UCH37 DUB inh: 2.9; HNF4A DNA FP: 3.5; RanGTP-Impb inh: 1.8; Vif A3G: 8.3%; Ecoli growth: 0.742

How did COc1cccc(C(NC(C)=O)c2nc(-c3ccc(N(C)C)cc3)cs2)c1 (stereo unspecified) do in these assays?
HNF4A DNA FP: -1.9; FGF22 binding: inactive; MLL AF4-AF9 inh: 5.2

How did COc1cc(OC)c(OC)cc1/C=N/NC(=O)c1ccc(CSc2nc(C)cc(C)n2)cc1 do in these assays?
HNF4A DNA FP: 8.0; FGF22 binding: inactive; RanGTP-Impb inh: -5.4; MLL AF4-AF9 inh: 0.4

How did NC1=NC2(CCCCCC2)n2c(nc3ccccc32)N1 do in these assays?
UCH37 DUB inh: 4.5; HNF4A DNA FP: -1.2; RanGTP-Impb inh: -0.2; Vif A3G: 4.5%; Ecoli growth: 0.659

What do the screens show for `COC(=O)c1ccc(OC(=O)c2cccnc2)cc1`?
UCH37 DUB inh: 4.5; HNF4A DNA FP: -2.6; RanGTP-Impb inh: 1.5; Vif A3G: -9.2%; Ecoli growth: 0.678

Results for CCCCCc1ccc(C(=O)CCCC)c(=S)[nH]1 ?
UCH37 DUB inh: 7.0; HNF4A DNA FP: 3.4; FGF22 binding: inactive; RanGTP-Impb inh: 0.1; MLL AF4-AF9 inh: 9.4; Vif A3G: -2.1%; Ecoli growth: 0.631

How did COc1ccc(C(=O)NC(=S)Nc2ccccc2[N+](=O)[O-])cc1OC do in these assays?
UCH37 DUB inh: 5.5; HNF4A DNA FP: 0.2; FGF22 binding: inactive; RanGTP-Impb inh: -2.2; MLL AF4-AF9 inh: -11.9; Vif A3G: -1.6%; Ecoli growth: 0.71

What do the screens show for `Cc1ccc(C)c(N2CCN(S(=O)(=O)c3ccc4c(c3)OCCO4)CC2)c1`?
UCH37 DUB inh: 2.2; HNF4A DNA FP: 1.4; RanGTP-Impb inh: 1.5; Vif A3G: -2.7%; Ecoli growth: 0.73

How did COc1ccc(-n2ncc3c2CC(C)(C)CC3NC(=O)c2oc(C)cc2C)cc1 (stereo unspecified) do in these assays?
UCH37 DUB inh: 1.1; HNF4A DNA FP: 4.1; FGF22 binding: inactive; RanGTP-Impb inh: 2.9; MLL AF4-AF9 inh: -0.4; Ecoli growth: 0.71

How did COc1cc(C(=O)NC(C)c2cccc3ccccc23)cc(OC)c1OC (stereo unspecified) do in these assays?
UCH37 DUB inh: 3.2; HNF4A DNA FP: -2.2; FGF22 binding: inactive; RanGTP-Impb inh: -1.4; MLL AF4-AF9 inh: -3.3; Vif A3G: -1.3%; Ecoli growth: 0.688

Results for COc1ccccc1C(=O)n1nc(-c2ccccc2)nc1NCc1ccco1 ?
UCH37 DUB inh: 5.3; HNF4A DNA FP: 0.6; RanGTP-Impb inh: -4.3; Vif A3G: -2.1%; Ecoli growth: 0.746

How did COc1nc(-c2ccccc2)cc(-c2ccccc2)n1 do in these assays?
UCH37 DUB inh: 4.1; HNF4A DNA FP: 2.1; RanGTP-Impb inh: 1.8; Vif A3G: 2.7%; Ecoli growth: 0.735

What do the screens show for `Cc1nc2cc(F)ccc2n1C1CCN(C(=O)c2c(F)cccc2F)CC1`?
UCH37 DUB inh: -72.4; HNF4A DNA FP: 3.3; FGF22 binding: inactive; RanGTP-Impb inh: 2.6; MLL AF4-AF9 inh: 0.0; Vif A3G: -2.2%; Ecoli growth: 0.667

Results for CCOC(=O)c1sc(=NC(=O)c2ccc(C)cc2)n(C)c1C ?
UCH37 DUB inh: -42.4; HNF4A DNA FP: 0.3; FGF22 binding: inactive; RanGTP-Impb inh: -0.6; MLL AF4-AF9 inh: -2.8; Vif A3G: -6.9%; Ecoli growth: 0.72

What do the screens show for `NC(=O)CC(NC(=O)c1cccc(Br)c1)c1ccc(N2CCC(Br)CC2)c([N+](=O)[O-])c1` (stereo unspecified)?
UCH37 DUB inh: 1.6; HNF4A DNA FP: -0.2; FGF22 binding: inactive; RanGTP-Impb inh: 0.4; MLL AF4-AF9 inh: 3.2; Ecoli growth: 0.707

What do the screens show for `O=C(NCCc1ccccc1)C(=O)N/N=C/c1ccc2c(c1)OCO2`?
HNF4A DNA FP: 1.9; RanGTP-Impb inh: 5.6; Vif A3G: -0.9%

How did COc1ccc(S(=O)(=O)N2CCOCC2)cc1NC(=O)Cn1nnc2ccccc2c1=O do in these assays?
UCH37 DUB inh: -0.2; HNF4A DNA FP: 0.1; FGF22 binding: inactive; RanGTP-Impb inh: -1.8; MLL AF4-AF9 inh: 1.6; Ecoli growth: 0.726

How did N#Cc1ccc(OCC(=O)N2CCN(S(=O)(=O)c3cccs3)CC2)cc1 do in these assays?
UCH37 DUB inh: 1.0; HNF4A DNA FP: 0.5; RanGTP-Impb inh: -1.7; Vif A3G: -2.0%; Ecoli growth: 0.746

Results for COc1cc(/C=C/C(=O)OCC(=O)NC(=O)NC(C)C)cc(S(=O)(=O)N2CCc3ccccc32)c1OC ?
UCH37 DUB inh: 2.4; HNF4A DNA FP: 3.3; FGF22 binding: inactive; RanGTP-Impb inh: 0.7; MLL AF4-AF9 inh: 5.5; Vif A3G: 4.1%; Ecoli growth: 0.726

How did CC1CC(C)CN(c2ncnc3c2cnn3-c2ccc(Cl)cc2)C1 (stereo unspecified) do in these assays?
UCH37 DUB inh: 4.6; HNF4A DNA FP: -1.3; FGF22 binding: inactive; RanGTP-Impb inh: 5.8; MLL AF4-AF9 inh: 1.2; Vif A3G: 18.2%; Ecoli growth: 0.727

Results for O=c1[nH]c(=S)n2c(c1-c1ccccc1)OC(CBr)C2 (stereo unspecified) ?
HNF4A DNA FP: -7.5; FGF22 binding: inactive; MLL AF4-AF9 inh: -1.0; Vif A3G: -3.4%

What do the screens show for `CCCCn1c(N)c(N(CC)C(=O)CSCc2ccc(C)cc2)c(=O)[nH]c1=O`?
UCH37 DUB inh: 0.9; HNF4A DNA FP: 4.6; FGF22 binding: inactive; RanGTP-Impb inh: 3.0; MLL AF4-AF9 inh: -3.2; Vif A3G: -3.7%; Ecoli growth: 0.738

Results for CC(C)CC(COCc1ccc([N+](=O)[O-])cc1)N1CCN(C(=O)c2ccc(C(F)(F)F)cc2)CCC1=O (stereo unspecified) ?
UCH37 DUB inh: 0.2; HNF4A DNA FP: 2.3; FGF22 binding: inactive; RanGTP-Impb inh: -1.9; Vif A3G: 25.5%; Ecoli growth: 0.719

What do the screens show for `N#Cc1c(F)cccc1NCCCn1ccnc1`?
UCH37 DUB inh: -9.6; HNF4A DNA FP: -4.3; RanGTP-Impb inh: 1.8; MLL AF4-AF9 inh: -7.3; Ecoli growth: 0.666

What do the screens show for `Cc1ccc(-c2csc(NC(=S)NC(=O)c3cc4ccccc4o3)n2)cc1`?
UCH37 DUB inh: 5.6; HNF4A DNA FP: 0.1; RanGTP-Impb inh: -1.8; Vif A3G: -0.8%; Ecoli growth: 0.725

How did COc1ccccc1N1CCN(S(=O)(=O)c2ccc3c(c2)NC(=O)C(C)C(=O)N3)CC1 (stereo unspecified) do in these assays?
UCH37 DUB inh: 3.4; HNF4A DNA FP: 2.9; FGF22 binding: inactive; RanGTP-Impb inh: -2.2; MLL AF4-AF9 inh: 4.4; Ecoli growth: 0.728

How did COc1cc(/C=N/N2CCN(c3ccc(Cl)cc3)CC2)cc(OC)c1OC(C)=O do in these assays?
HNF4A DNA FP: 3.1; FGF22 binding: inactive; RanGTP-Impb inh: 2.7; MLL AF4-AF9 inh: 0.0

Results for O=C(CC1(O)C(=O)Nc2ccccc21)c1ccc(-n2cnnn2)cc1 (stereo unspecified) ?
UCH37 DUB inh: 0.2; HNF4A DNA FP: 1.8; FGF22 binding: inactive; RanGTP-Impb inh: 1.3; MLL AF4-AF9 inh: -1.7; Vif A3G: 5.6%; Ecoli growth: 0.685

How did COc1ccc2[nH]c3c(c2c1)CCN1C(=O)C(CC(=O)NC/C=C(\C)CCC=C(C)C)C[C@H](C(=O)N2CCOCC2)[C@@]31CCC1CCCC1 (stereo partly specified) do in these assays?
UCH37 DUB inh: 0.9; HNF4A DNA FP: 2.7; FGF22 binding: inactive; MLL AF4-AF9 inh: 0.3; Vif A3G: 8.0%; Ecoli growth: 0.669

How did COc1ccccc1NC(=O)Nc1ccnn1C1CCCCC1 do in these assays?
UCH37 DUB inh: -2.0; HNF4A DNA FP: -0.2; RanGTP-Impb inh: 0.5; Vif A3G: 0.2%; Ecoli growth: 0.69

How did COc1ccc(-c2csc(NC(=S)NC(=O)c3ccccc3)n2)cc1Br do in these assays?
UCH37 DUB inh: 4.7; HNF4A DNA FP: -4.1; FGF22 binding: inactive; RanGTP-Impb inh: -2.2; MLL AF4-AF9 inh: -1.8; Vif A3G: -9.1%; Ecoli growth: 0.736

Results for Cc1oc(-c2ccccc2F)nc1CS(=O)CC(=O)NCc1ccc(F)cc1 (stereo unspecified) ?
UCH37 DUB inh: 4.3; HNF4A DNA FP: 4.0; FGF22 binding: inactive; RanGTP-Impb inh: inconclusive; MLL AF4-AF9 inh: 5.7; Ecoli growth: 0.657

Results for O=C(C1CCC1)N1CCN(S(=O)(=O)c2cccc(F)c2)CC1 ?
UCH37 DUB inh: 4.6; HNF4A DNA FP: 0.3; FGF22 binding: inactive; RanGTP-Impb inh: -1.2; MLL AF4-AF9 inh: 4.5; Vif A3G: -4.9%; Ecoli growth: 0.691

Results for CC(=O)Nc1ccccc1N(CC(O)Cn1c2ccccc2c2ccccc21)S(=O)(=O)c1ccc(C)cc1 (stereo unspecified) ?
UCH37 DUB inh: -0.6; HNF4A DNA FP: 0.8; FGF22 binding: inactive; RanGTP-Impb inh: -2.5; MLL AF4-AF9 inh: 0.0; Ecoli growth: 0.694

What do the screens show for `CS(=O)(=O)N1CCCC(C(=O)N2CCOCC2)C1` (stereo unspecified)?
UCH37 DUB inh: 2.0; HNF4A DNA FP: 5.7; FGF22 binding: inactive; RanGTP-Impb inh: -4.5; MLL AF4-AF9 inh: -3.8; Vif A3G: -1.3%; Ecoli growth: 0.712

What do the screens show for `CSc1nc(O)c(C2OC(=O)c3ccccc32)c(=O)[nH]1` (stereo unspecified)?
UCH37 DUB inh: 0.7; HNF4A DNA FP: -0.2; RanGTP-Impb inh: -1.6; Vif A3G: 17.3%; Ecoli growth: 0.71

Results for CC(=O)Nc1ccc(-c2cc(-c3ccccc3)nc(-c3ccccc3)n2)cc1 ?
UCH37 DUB inh: -5.1; HNF4A DNA FP: 2.2; RanGTP-Impb inh: 5.7; Vif A3G: -53.1%; Ecoli growth: 0.692

How did Cc1ccc2nc(C)c(C(=O)O)cc2c1 do in these assays?
UCH37 DUB inh: 2.1; HNF4A DNA FP: -3.2; FGF22 binding: inactive; RanGTP-Impb inh: inconclusive; MLL AF4-AF9 inh: -0.4; Vif A3G: 27.9%; Ecoli growth: 0.729

How did CCOc1ccc(OCC)c(NC(=O)Cn2c(C)nc3ccccc3c2=O)c1 do in these assays?
UCH37 DUB inh: 5.2; HNF4A DNA FP: 0.4; FGF22 binding: inactive; RanGTP-Impb inh: -0.8; MLL AF4-AF9 inh: -0.4; Ecoli growth: 0.703

What do the screens show for `Cc1ccc(C(=O)COC(=O)CNC(=O)c2ccccc2)s1`?
UCH37 DUB inh: 2.9; HNF4A DNA FP: -1.0; FGF22 binding: inactive; MLL AF4-AF9 inh: -0.1; Vif A3G: -4.3%; Ecoli growth: 0.649

Compound activity as filed in PubChem.
